EPAC1 ag val: Validation qHTS for agonist of cAMP-regulated guanine nucleotide exchange factor 3 (EPAC1). EPAC1 Rap1b BODIPY-GDP exchange, fluorescence. Potency, µM, for the others: max response, positive = active, most hits filed as activators. 16,000 tested, 1% active. AID 1645883, 2021; active means well fitted activation curve with a large enough effect; inconclusive means small, poorly fitted or top-dose-only effect; inactive means no such curve, though single readings can be large or run the other way;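 further: nearly all actives have a fitted effect of over 70% in size; series mostly up to about 76 or 150 µM; scaled to a cAMP control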
Target sequence (O95398 whole entry, looked up): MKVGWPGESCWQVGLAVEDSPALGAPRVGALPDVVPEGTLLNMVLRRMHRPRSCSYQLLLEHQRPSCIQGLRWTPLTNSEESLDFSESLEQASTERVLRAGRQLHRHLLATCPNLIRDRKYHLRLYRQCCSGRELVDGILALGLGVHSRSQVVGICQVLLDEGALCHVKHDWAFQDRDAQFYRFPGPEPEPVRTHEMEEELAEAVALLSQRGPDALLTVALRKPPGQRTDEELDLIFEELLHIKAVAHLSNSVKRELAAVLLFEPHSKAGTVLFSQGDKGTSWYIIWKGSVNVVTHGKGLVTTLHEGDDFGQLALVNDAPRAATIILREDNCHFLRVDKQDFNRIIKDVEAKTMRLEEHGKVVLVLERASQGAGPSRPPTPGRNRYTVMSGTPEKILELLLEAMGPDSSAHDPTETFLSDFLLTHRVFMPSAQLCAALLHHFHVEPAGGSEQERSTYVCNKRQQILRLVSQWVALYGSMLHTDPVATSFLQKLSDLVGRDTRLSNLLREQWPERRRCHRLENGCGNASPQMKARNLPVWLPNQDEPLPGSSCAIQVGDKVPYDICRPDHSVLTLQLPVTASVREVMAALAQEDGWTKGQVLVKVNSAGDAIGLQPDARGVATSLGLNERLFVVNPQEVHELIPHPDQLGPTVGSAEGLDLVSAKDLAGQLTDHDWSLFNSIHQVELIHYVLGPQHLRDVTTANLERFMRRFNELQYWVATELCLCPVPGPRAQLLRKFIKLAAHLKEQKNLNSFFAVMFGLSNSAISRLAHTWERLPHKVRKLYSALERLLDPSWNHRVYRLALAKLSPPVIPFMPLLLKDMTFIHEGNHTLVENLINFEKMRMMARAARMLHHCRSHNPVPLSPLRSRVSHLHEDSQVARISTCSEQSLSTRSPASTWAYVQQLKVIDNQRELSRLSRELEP
* hit, by the source's call; ? = inconclusive; & = joins results of further samples; [ ] = dose if it differs, or a comment. On the % scale 0 is the no-effect control and ±100 the full control effect; potency means the concentration at half of the fitted maximal effect. Only part of the results is shown; rates above refer to the full screens.

compound	EPAC1 ag val
CCCN(C/C=C/I)C1CCc2ccc(O)cc2C1 (stereo unspecified)	-3%
COCC(=O)N(c1c(C)cccc1C)C(C)C(=O)OC (stereo unspecified)	-7%
C[N+]1(C)[C@@H]2CC[C@H]1CC(OC(=O)C(CO)c1ccccc1)C2 (stereo partly specified)	-21%&-4%
C(=C/c1ccccc1)/CN1CCN(CCOC(c2ccccc2)c2ccccc2)CC1	-3%
c1ccc2c(c1)sc1ccccc12	?
COc1ccc2c(c1)[C@@]13CCCC[C@H]1[C@@H](C2)NCC3	-7%
CCOC(=O)CN1C(=O)CC(C[C@@H](O)C2C[C@@H](C)C[C@H](C)C2=O)CC1=O (stereo partly specified)	-3%
CCC1/C=C/C=CCC(C)C(O)[C@@](C)(O)C(=O)C(C)C(O)C(C)C(=O)C(C)C(O)C(C)C=CC(=O)O[C@H]2C(C)C(CC1)O[C@]1(CCC(C)C(CC(C)O)O1)C2C (stereo partly specified)	-75%[inhibitor]
O=C1C2CCN(CC2)C1(CO)CO	-18%
CN[C@@H](C)[C@H](O)c1ccccc1	-16%
CN1CCCC2(CCN(C(=O)c3csnn3)CC2)C1	-45%[inhibitor]
COP(=S)(OC)Oc1ccc(S(=O)(=O)N(C)C)cc1	5%
Clc1ccc(N2CC3CCC(C2)N3)nn1	1%
COc1ccc2[nH]cc(CCNCc3ccc(Br)cc3)c2c1	-5%
NC(=NCc1ccc(Cl)cc1)SCCCc1cnc[nH]1	-12%
C[C@H]1CCC[C@H](O)CCCCCc2cc(O)cc(O)c2C(=O)O1	-20%
Clc1ccc(C2(Cn3cncn3)OCCO2)c(Cl)c1	-20%
O=c1cccc2n1CC1CC2CN(CCO)C1 (stereo unspecified)	-6%
CC(C)(Cc1c[nH]c2ccc(Cl)cc12)NCCOc1ccccc1OCC1CC1	-6%&-12%
NC(N)=Nc1ccc2[nH]c3c(c2c1)C[C@@]1(O)[C@H]2Cc4ccc(O)c5c4[C@@]1(CCN2CC1CC1)[C@H]3O5	2%
COC(=O)N1CCN(C(=O)Cc2ccc(Cl)c(Cl)c2)[C@H](CN2CCCC2)C1	4%
COc1ccc2c(c1O)-c1c(OC)c(OC)cc3c1[C@@H](C2)N(C)CC3	12%
CC(C)[N+](C)(CCC(C(N)=O)(c1ccccc1)c1ccccc1)C(C)C	28%&-5%
CC(C)N1C(=O)c2ccccc2NS1(=O)=O	?
Cn1cccc1-c1cccnc1	-18%
O=C1CCCCC1CN1CCCCC1 (stereo unspecified)	-16%
CC(C)NC(=O)N1CC[C@@]2(CCCNC2)C1	-43%[inhibitor]
O=C(Nc1cccc(F)c1)N1CC2(CCNCC2)C1	-4%
COc1ccc2[nH]cc(C3=CCNCC3)c2c1	-20%&-2%
NNc1ccccc1	-22%
c1cc2ccc3cccc4ccc(c1)c2c34	?
Cc1nnc2n1-c1ccc(Cl)cc1C(c1ccccc1Cl)=NC2	14%
Oc1c(Cl)c(Cl)c(Cl)c(Cl)c1Cl	-64%[inhibitor]
C[C@@H]1[C@@H]2Cc3ccc(O)cc3[C@@]1(C)CCN2CC1CC1	2%
CN1C(=O)CN=C(c2ccccc2)c2cc(Cl)ccc21	11%
C=CCN1CC[C@]23c4c5ccc(O)c4O[C@H]2C(=O)CC[C@@]3(O)[C@H]1C5	-10%&-6%
O[C@H]1CCCC[C@H]1N1CCC(c2ccccc2)CC1	10%
O=C(N[C@H]1N=C(c2ccccc2F)c2cccc3c2N(CC3)C1=O)c1cc2ccccc2[nH]1	3%
COc1ccc2c(CCN)c[nH]c2c1	-16%
c1csc(CN2CCCC3(CCNCC3)C2)n1	-23%
O=C(Oc1ccccc1)N1CCC[C@@]2(CCN(C(c3ccccc3)c3ccccc3)C2)C1	1%
CC(C)C[C@H](NC(=O)[C@H](Cc1ccccc1)NC(=O)CNC(=O)[C@H](C)NC(=O)[C@@H](N)Cc1ccc(O)cc1)C(=O)O	-14%
COC(=O)N1CCC2(CCCN(C)C2)CC1	24%
Oc1ccc(-c2cccnc2)cc1CNC1CN2CCC1CC2 (stereo unspecified)	-7%
CN(C)C1C(=O)C(C(N)=O)=C(O)[C@@]2(O)C(=O)C3=C(O)c4c(O)cccc4[C@@](C)(O)C3[C@H](O)C12 (stereo partly specified)	-4%
Clc1ccc(C(OCCN2CCCCC2)c2ccccc2)cc1 (stereo unspecified)	15%&-44%
C1CCC(NC2CCCCC2)CC1	-9%
CC1(C)C(O)CC(O)[C@]2(C)C1CC(O)[C@]1(C)C2CC[C@@]2(C)C(c3ccoc3)CC3OC312 (stereo partly specified)	-42%[inhibitor]
CO[C@@H]1C[C@@H](C[C@H]2CC[C@H](C)[C@@H]([C@@H](C)C(=O)O)O2)O[C@]2(O[C@](C)([C@H]3CC[C@@](C)(C4OC([C@H]5O[C@@](O)(CO)[C@H](C)C[C@@H]5C)C[C@@H]4C)O3)C[C@H]2C)[C@@H]1C (stereo partly specified)	-8%
COc1ccc(CNC(=O)/C=C/c2ccc3[nH]cc(CCN(C)C)c3c2)cc1	-4%

(more compounds)
compound	EPAC1 ag val
C=C1C[C@@H]2[C@H](CC[C@]3(C)C(=O)CC[C@@H]23)[C@@]2(C)C=CC(=O)C=C12	-8%
NC(=O)CI	12%
CNCCc1cnc[nH]1	-10%&-8%
CCCCCCC(=O)CCCCCC/C=C/C[C@@H](O)[C@H](O)[C@@](N)(CO)C(=O)O	?
c1ccc(N2CCCC3(CCNCC3)C2)cc1	-69%[inhibitor]
CCCCC/C=C\C/C=C\C/C=C\CCCCCCC(=O)NCCO	-11%
C=CCN1CCC23c4c5ccc(O)c4O[C@H]2C(=O)CC[C@@]3(O)C1C5 (stereo partly specified)	3%
CN1CCN=C(c2ccccc2)c2cc(Cl)ccc21	-6%
CN[C@@H](C)Cc1ccccc1	-50%[inhibitor]
CC(=O)OC1C(=O)[C@]2(C)C(O)CC3OC[C@]3(OC(C)=O)C2[C@@H](OC(=O)c2ccccc2)[C@]2(O)CC(O)C(C)=C1C2(C)C (stereo partly specified)	0%
C[C@@H]1[C@@H]2Cc3ccc(O)cc3[C@@]1(C)CCN2CCc1ccccc1	14%
CC(=O)C1CCC2C3CCC4CC(O)CCC4(C)C3CC(O)C12C (stereo unspecified)	-7%
N#C/C(=C\c1ccc(O)c(O)c1)C(N)=S	-21%&-23%
O=[N+]([O-])c1c(Cl)c(Cl)cc(Cl)c1Cl	-17%
COc1cc2c(c(OC)c1OC)-c1ccc(O)c(=O)cc1[C@@H](NC(C)=O)CC2	-13%
O=C1/C(=C/c2ccc(N(CCCl)CCCl)cc2)Cc2ccccc21	?
Cn1c(CCCC(=O)O)nc2cc(N(CCCl)CCCl)ccc21	?
NCC(=O)c1ccc(Br)cc1	?
O=C(O)[C@@H]1CCN1	-8%
CC(Cc1ccc(OCC(=O)O)cc1)NCC(O)c1cccc(Cl)c1 (stereo unspecified)	-9%&-7%
Clc1ccc(C(Cn2ccnc2)OCc2csc3c(Cl)cccc23)c(Cl)c1 (stereo unspecified)	?
CN1[C@@H]2CC[C@H]1CC(OC(=O)c1cc(Cl)cc(Cl)c1)C2 (stereo partly specified)	-3%&-1%
CO[C@H]1CC=C2CCN3CCC4=C(CC(=O)OC4)[C@]23C1	-9%&-8%
CC(=O)C1CC[C@H]2C3CC[C@@H]4CC(O)CC[C@@]4(C)C3CC[C@]12C (stereo partly specified)	11%
CCCCOC(=O)c1ccccc1C(=O)OCc1ccccc1	-22%
CN(CCC(N)CC(=O)NC1C=CC(n2ccc(N)nc2=O)OC1C(=O)O)C(=N)N (stereo unspecified)	8%
CC(=O)OC[C@]12C[C@H](OC(=O)CC(C)C)C(C)=C[C@H]1O[C@H]1[C@H](O)[C@@H](OC(C)=O)[C@@]2(C)[C@]12CO2	-14%
NCC(CC(=O)O)c1ccc(Cl)s1 (stereo unspecified)	-6%
CNC(=O)N(C)c1nnc(C(C)(C)C)s1	?
CC1CCCC(=O)CCC/C=C/c2cc(O)cc(O)c2C(=O)O1 (stereo unspecified)	?
c1cc(CN2CCCC3(CCNCC3)C2)ccn1	-25%
CC[C@]1(O)C(=O)OCc2c1cc1n(c2=O)Cc2cc3ccccc3nc2-1	9%
NCC(O)c1cc(O)c(O)cc1F (stereo unspecified)	2%
CS(=O)(=O)c1ccc(C(=O)C2C(=O)CCCC2=O)c([N+](=O)[O-])c1	-51%[inhibitor]
CC(C)CN1CCC2(CC1)CCN(C(=O)Oc1ccccc1)CC2	-86%[inhibitor]
CC(=O)OC1CC2C(C)(C)C(=O)C=C[C@]2(C)C2CC[C@]3(C)C(=CC(=O)OC3c3ccoc3)[C@]12C (stereo partly specified)	?
O=c1cccc2n1CC1CC2CN2CCCC[C@H]12 (stereo partly specified)	5%
CCN1C[C@]2(COC)[C@H](O)C[C@H](OC)[C@]34C1C([C@H](OC)[C@H]23)[C@]1(OC(C)=O)C2[C@@H](OC(=O)c3ccccc3)C(O)(C[C@H]24)[C@@H](OC)[C@@H]1O	-16%
CN1Cc2ccccc2[C@@H]2c3cccc4[nH]cc(c34)C[C@H]21	-8%&-7%
COc1cc([C@@H]2c3cc4c(cc3[C@@H](O)[C@H]3COC(=O)[C@H]23)OCO4)cc(OC)c1O	8%
COc1ccc2c3c1O[C@H]1C(=O)CC[C@H]4[C@@H](C2)N(C)CC[C@]314	15%
CN1CCC(O)(c2ccc(F)cc2)C(C(=O)c2ccc(F)cc2)C1 (stereo unspecified)	17%
O=S1(=O)N(CCN2CC=C(c3c[nH]c4cc(F)ccc34)CC2)c2cccc3c2N1CCC3	24%
CC(C)Nc1ccc(Nc2ccccc2)cc1	2%
CN1C(=O)NC(=O)C(C)(C2=CCCCC2)C1=O (stereo unspecified)	?
CC[C@@]1(O)C(=O)OCc2c1cc1n(c2=O)Cc2cc3ccccc3nc2-1	1%&-11%&0%
CCOC(=O)[C@]12Cc3cc(Cl)ccc3[C@H]1N(Cc1ccccc1)C(=O)c1ccccc12	?
CCOP(=O)(NC(C)C)Oc1ccc(SC)c(C)c1 (stereo unspecified)	-45%[inhibitor]
Cc1o[nH]c(=O)c1C[C@H](N)C(=O)O	1%&3%&-3%
CCN(CC)CCOC(=O)C(O)(c1ccccc1)c1ccccc1	-26%

Other entries follow.
compound	EPAC1 ag val
NC(Cc1ccc(N(CCCl)CCCl)cc1)C(=O)O (stereo unspecified)	4%&21%
O=c1[nH]c2ccccc2n1C1CCN(CCCC(c2ccc(F)cc2)c2ccc(F)cc2)CC1	?
O=C(O)[C@@H]1C[C@H]2C[C@@H](CP(=O)(O)O)CC[C@H]2CN1	-10%
O=C1Nc2ccc(Cl)cc2C(c2ccccc2)=NC1O (stereo unspecified)	3%&-32%
C1CN(P2(N3CC3)=NP(N3CC3)(N3CC3)=NP(N3CC3)(N3CC3)=N2)CCO1 (stereo unspecified)	-1%
CCCN(CCC)CCc1ccc(O)c(O)c1	3%&-9%
O=C(O)C1=CCCN(CCOC(c2ccc(C(F)(F)F)cc2)c2ccc(C(F)(F)F)cc2)C1	-41%[inhibitor]
CCCCCCCCCCCCCC(=O)OC1C(C)[C@@]2(O)C(C=C(CO)C[C@]3(O)C(=O)C(C)=C[C@H]23)[C@@H]2C(C)(C)[C@]12OC(C)=O (stereo partly specified)	-101%[inhibitor]
CC1CC2CC(=O)C3CCCN4CCCC2[C@]34C1 (stereo partly specified)	0%
CCC(=O)O[C@H]1CC[C@H]2[C@@H]3CCC4=CC(=O)CC[C@]4(C)[C@H]3CC[C@]12C	-20%

7 structures out of the list, arranged by formula weight, low to high.
compound	EPAC1 ag val
O=C(O)[C@@H]1CCN1	-8%
CNCCc1cnc[nH]1	-10%&-8%
COc1ccc2[nH]cc(C3=CCNCC3)c2c1	-20%&-2%
CN1C(=O)NC(=O)C(C)(C2=CCCCC2)C1=O (stereo unspecified)	?
CN1Cc2ccccc2[C@@H]2c3cccc4[nH]cc(c34)C[C@H]21	-8%&-7%
O=C(N[C@H]1N=C(c2ccccc2F)c2cccc3c2N(CC3)C1=O)c1cc2ccccc2[nH]1	3%
CC(=O)OC[C@]12C[C@H](OC(=O)CC(C)C)C(C)=C[C@H]1O[C@H]1[C@H](O)[C@@H](OC(C)=O)[C@@]2(C)[C@]12CO2	-14%

Remaining list, next part.
compound	EPAC1 ag val
CC1CC[C@@]2(NC1)O[C@@H]1C[C@H]3C4CC=C5C[C@@H](O)CC[C@]5(C)C4CC[C@]3(C)[C@H]1[C@@H]2C (stereo partly specified)	-20%
CC(N)Cc1c[nH]c2ccc(O)cc12 (stereo unspecified)	-1%&-10%
c1ccc2c(N3CCNCC3)cccc2c1	0%&-8%
O=P1(NCCCl)OCCCN1CCCl (stereo unspecified)	-50%[inhibitor]
C[C@]12CC[C@H](O)CC1=CC[C@@H]1[C@@H]2CC[C@]2(C)C(=O)CC[C@@H]12	-40%[inhibitor]
O=P1(N(CCCl)CCCl)NC(OO)CCO1 (stereo unspecified)	3%
N[C@]1(C(=O)O)CC[C@@H](C(=O)O)C1 (racemic)	-10%&-15%
C[C@]12Cc3cn4c(nc3C=C1CCC1C2CC[C@@]2(C)[C@H]1CC[C@@]2(O)C#N)nc1ccccc14 (stereo partly specified)	13%
CN(C)CCc1ccc(O)cc1	-20%&-2%
CN(CCc1ccc(Cl)c(Cl)c1)[C@H]1CCCC[C@H]1N1CCCC1	-5%

Compound activity (PubChem)
